High-throughput results (PubChem BioAssay)
AF4-AF9 inh: inhibitors of AF4 peptide binding to AF9, primary screen, biochemical, AlphaScreen, biotin-AF4 peptide, FLAG-AF9, single point. Protein AF-9 (Homo sapiens), P42568. inhibition, % at 10 µM. 350,000 tested, 0.47% active;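 active means every replicate reaching a set inhibition limit, whatever the replicate mean, cut at about 25% in these data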;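 further: 0% = plate neutral control median and 100% = total signal loss; the record names both 10 and 1 µM as test concentration; the first replicate is given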
Target sequence (P42568 whole entry, looked up): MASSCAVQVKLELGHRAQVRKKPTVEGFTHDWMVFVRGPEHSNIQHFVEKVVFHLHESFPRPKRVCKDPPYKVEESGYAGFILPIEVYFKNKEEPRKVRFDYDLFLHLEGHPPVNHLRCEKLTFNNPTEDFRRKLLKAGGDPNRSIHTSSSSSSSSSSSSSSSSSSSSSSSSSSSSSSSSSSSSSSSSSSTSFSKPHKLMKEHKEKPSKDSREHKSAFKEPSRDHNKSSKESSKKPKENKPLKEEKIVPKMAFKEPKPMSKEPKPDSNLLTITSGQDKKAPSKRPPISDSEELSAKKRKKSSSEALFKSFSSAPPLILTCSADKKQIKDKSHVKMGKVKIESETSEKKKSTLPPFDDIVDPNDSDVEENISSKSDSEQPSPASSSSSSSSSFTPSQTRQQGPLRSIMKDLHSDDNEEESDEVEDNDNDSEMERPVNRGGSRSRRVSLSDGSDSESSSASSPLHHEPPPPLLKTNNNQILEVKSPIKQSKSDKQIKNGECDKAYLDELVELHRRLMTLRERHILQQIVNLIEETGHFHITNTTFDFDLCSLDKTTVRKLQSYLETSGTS
* = called active by the depositor; & = joins results of further samples. This is a subset. The share of hits here may be higher or lower than overall.

C[C@H](CO)N1C[C@H](C)[C@@H](CN(C)Cc2ccc(-c3ccccc3)cc2)Oc2ccc(NC(=O)Cc3cn(C)c4ccccc34)cc2C1=O was read as AF4-AF9 inh -1.3.
For CCC(=O)N1[C@@H]2CN(C(=O)Nc3ccc(Cl)cc3)c3ccccc3[C@@H]2[C@@H]1CO the results were AF4-AF9 inh 1.4.
`C[C@H]1CN([C@@H](C)CO)C(=O)c2cc(-c3ccc(C#N)cc3)cnc2O[C@H]1CN(C)C(=O)CN(C)C` gave AF4-AF9 inh -0.5.
For C[C@@H]1CN([C@H](C)CO)C(=O)CCCn2cc(nn2)CO[C@@H]1CN(C)S(=O)(=O)c1cccc(C#N)c1 the results were AF4-AF9 inh -2.6.
For COc1ccc(NC(=O)N2CC3(C2)CN(CC2CC2)[C@@H](CO)c2c3c3ccc(OC)cc3n2C)cc1 the results were AF4-AF9 inh 3.2.
For C[C@H]1CCCCO[C@H](CN(C)Cc2ccc(C(F)(F)F)cc2)[C@@H](C)CN([C@@H](C)CO)C(=O)c2cc(NS(=O)(=O)c3cccs3)ccc2O1 the results were AF4-AF9 inh -3.8.
O=C1CN(Cc2ccc(F)cc2)C[C@@H]2[C@H](c3ccc(-c4ccccc4)cc3)[C@@H](CO)N12 was read as AF4-AF9 inh 0.7.
`C[C@H](CO)N1C[C@H](C)[C@H](CN(C)Cc2ccc(-c3ccccc3)cc2)Oc2ccc(NC(=O)Nc3ccccc3)cc2CC1=O` gave AF4-AF9 inh 0.8.
`COc1ccc(NC(=O)N(C)C[C@H]2OCCCC[C@@H](C)Oc3ccc(NS(=O)(=O)c4ccccc4)cc3C(=O)N([C@H](C)CO)C[C@@H]2C)cc1` gave AF4-AF9 inh -1.3.
Screening O=C(Nc1ccc(Cl)cc1)N[C@@H]1CC[C@@H](CCn2cc(-c3ccccc3F)nn2)O[C@@H]1CO returned AF4-AF9 inh -1.1.
COCC#Cc1ccc([C@@H]2[C@@H](CO)N3C(=O)CN(C(=O)C4CCC4)C[C@@H]23)cc1 was read as AF4-AF9 inh -4.4.
Screening O=C(NCC1CCCCC1)[C@H]1[C@H](CO)[C@H]2Cn3c(cccc3=O)[C@@H]1N2C(=O)c1cccnc1 returned AF4-AF9 inh 0.9.
O=C(c1cnccn1)N1CC(=O)N2[C@H](CO)[C@@H](c3ccc(C#CC4CCCCC4)cc3)[C@H]2C1 was read as AF4-AF9 inh 6.4.
`CCCC(=O)Nc1ccc2c(c1)OC[C@H](C)N(Cc1ccncc1)C[C@@H](C)[C@H](OC)CN(C)C2=O` gave AF4-AF9 inh -7.6.
O=S(=O)(c1ccccc1)N1CCCCN2[C@H](CO)[C@H](c3ccc(C#CC4CCCC4)cc3)[C@H]2C1 was read as AF4-AF9 inh 3.7.
Screening CCCCN(C)C(=O)c1ccc(Nc2nc(C(N)CCc3ccccc3)cs2)nc1 (stereo not given) returned AF4-AF9 inh 7.1.
`C=CCC[C@H](CCCCC)OC(=O)/C=C/[C@@H](O)[C@H](O)C[C@H](O)CC=C` gave AF4-AF9 inh 3.1.
Cc1noc(C)c1S(=O)(=O)Nc1ccc2c(c1)C(=O)N([C@H](C)CO)C[C@@H](C)[C@@H](CN(C)C(=O)Nc1ccc(F)cc1)OCCCC[C@@H](C)O2 was read as AF4-AF9 inh -0.4.
For O=C(C[C@H]1C=C[C@@H](NC(=O)C2CC2)[C@@H](CO)O1)Nc1nccs1 the results were AF4-AF9 inh 0.6.
`C[C@@H]1CN([C@H](C)CO)C(=O)c2cc(-c3cccc(F)c3)cnc2O[C@@H]1CN(C)C(=O)Nc1cc(F)ccc1F` gave AF4-AF9 inh 0.3.
For CC(C)c1cccc(C(C)C)c1NC(=O)OC1CCCCC1 the results were AF4-AF9 inh 0.1.
For Cc1noc(C)c1NC(=O)N(C)C[C@@H]1Oc2ncc(C#Cc3ccc(C(F)(F)F)cc3)cc2C(=O)N([C@H](C)CO)C[C@@H]1C the results were AF4-AF9 inh 6.2.
For O=C([C@@H]1[C@@H](CO)[C@@H]2Cn3c(ccc(-c4ccccc4F)c3=O)[C@H]1N2C(=O)C1CC1)N1CCOCC1 the results were AF4-AF9 inh -1.1.
For COCC(=O)N1CC(=O)N2[C@H](CO)[C@H](c3ccc(-c4cccnc4)cc3)[C@H]2C1 the results were AF4-AF9 inh -3.3.
Screening CC(C)NC(=O)N(C)C[C@H]1OCCCC[C@@H](C)Oc2ccc(NS(C)(=O)=O)cc2C(=O)N([C@@H](C)CO)C[C@@H]1C returned AF4-AF9 inh -1.3.
For C[C@@H]1CN([C@H](C)CO)C(=O)c2cc(-c3ccc(C(=O)N(C)C)cc3)cnc2O[C@@H]1CN(C)C(=O)c1ccncc1 the results were AF4-AF9 inh -3.0.
COc1ccc(NC(=O)O[C@H](c2ccc(OC)c(O)c2)[C@@H](CCO)OC)cc1 was read as AF4-AF9 inh -1.1.
Screening O=C(NC[C@H]1N[C@H](CO)[C@@H]1c1ccc(C2=CCCCC2)cc1)c1ccc(F)cc1 returned AF4-AF9 inh 13.
CO[C@@H]1CN(C)C(=O)c2cc(NC(=O)C3CC3)ccc2OC[C@H](C)N(C(=O)CN2CCOCC2)C[C@@H]1C was read as AF4-AF9 inh -1.1&-2.6.
`C[C@H](CO)N1C[C@H](C)[C@H](CN(C)Cc2ccc(C(F)(F)F)cc2)Oc2c(NC(=O)c3ccncc3)cccc2C1=O` gave AF4-AF9 inh -1.9.
CN1c2ccc(-c3cccc(F)c3)cc2[C@H]2[C@H](CCN2C(=O)Cc2ccccc2)[C@H]1CO was read as AF4-AF9 inh 6.1.
`C[C@@H]1CCCCO[C@H](CN(C)C(=O)Nc2cccc3ccccc23)[C@@H](C)CN([C@H](C)CO)C(=O)c2cc(NC(=O)Nc3ccc(C(F)(F)F)cc3)ccc2O1` gave AF4-AF9 inh -1.4.
`CCC(=O)Nc1ccc2c(c1)C(=O)N(C)[C@H]1CC[C@H](CC(=O)Nc3cccc(OC)c3)O[C@@H]1CO2` gave AF4-AF9 inh -2.0.
`CSCCC(NC(=O)COc1ccccc1)C(=O)NCC(C)(C)N1CCOCC1` (stereo not given) gave AF4-AF9 inh -1.2.
Screening Cc1noc(C)c1NC(=O)Nc1ccc2c(c1)CC(=O)N([C@H](C)CO)C[C@@H](C)[C@@H](CN(C)C(=O)Nc1c(C)noc1C)O2 returned AF4-AF9 inh -2.5.
For CCCCNC(=O)C(NC(=O)c1cccc2ccccc12)C(=O)c1ccccc1 (stereo not given) the results were AF4-AF9 inh 0.0.
Cc1ccc(S(=O)(=O)Nc2ccc3c(c2)CC(=O)N([C@@H](C)CO)C[C@@H](C)[C@H](CN(C)S(=O)(=O)c2cn(C)cn2)O3)cc1 was read as AF4-AF9 inh -1.0.
For COc1ccc(C#Cc2ccc3c(c2)[C@@H]2[C@@H](CCN2C(=O)c2ccccn2)[C@@H](CO)N3)cc1 the results were AF4-AF9 inh 0.9.
Screening C#CCNC(=O)c1ccc2sc([C@@H]3O[C@H](CO)[C@H](O)[C@H](O)[C@H]3O)nc2c1 returned AF4-AF9 inh -17.
Screening C/C=C/c1ccc([C@H]2[C@H]3CN(S(=O)(=O)c4ccccc4)CCCCN3[C@H]2CO)cc1 returned AF4-AF9 inh 6.0.
For O=C(Nc1ccccc1F)N[C@@H]1CC[C@H](CCNS(=O)(=O)c2ccc(Cl)cc2)O[C@H]1CO the results were AF4-AF9 inh 0.8.
For CO[C@@H]1CN(C)C(=O)c2cc(NC(=O)NC(C)C)ccc2OC[C@H](C)N(CC2CC2)C[C@H]1C the results were AF4-AF9 inh -2.5.
`CCC(=O)N(C)C[C@H]1[C@@H](c2ccc(-c3cccnc3)cc2)[C@@H](CO)N1C(C)=O` gave AF4-AF9 inh -4.4.
CC(=O)c1c(C)[nH]c(C(=O)OCC(=O)NC(C)c2ccccc2)c1C (stereo not given) was read as AF4-AF9 inh -0.6.
`CCCNC(=O)[C@H]1[C@H](CO)[C@H]2Cn3c(ccc(-c4ccccc4OC)c3=O)[C@H]2N1C(=O)CC` gave AF4-AF9 inh -0.3.
Screening COc1ccc(C#Cc2ccc3c(c2)[C@H]2[C@H](CCN2C(=O)c2ccccc2F)[C@H](CO)N3)cc1 returned AF4-AF9 inh -2.0.
COc1ccc(CN(C)C[C@H]2OCCCC[C@@H](C)Oc3ccc(NC(=O)C4CCCCC4)cc3C(=O)N([C@H](C)CO)C[C@H]2C)cc1 was read as AF4-AF9 inh 0.2.
For N#C[C@@H]1[C@@H](c2ccccc2C2=CCCCC2)[C@@H](CO)N1S(=O)(=O)c1ccccc1 the results were AF4-AF9 inh -1.1.
For CCC(=O)Nc1ccc2c(c1)C(=O)N(C)[C@H]1CC[C@@H](CC(=O)N[C@H](C)c3ccccc3)O[C@@H]1CO2 the results were AF4-AF9 inh -0.2.
CN1CCN(C(=O)C[C@H]2CC[C@@H](NC(=O)Nc3ccccc3F)[C@@H](CO)O2)CC1 was read as AF4-AF9 inh -1.0.
O=C(Cc1cccc(NC(=O)C2CCN(C(=O)c3ccccc3)CC2)c1)Nc1cccc(C(=O)N2CCCCC2)c1 was read as AF4-AF9 inh -0.1.
For C[C@H](CO)N1C[C@H](C)[C@@H](CN(C)S(=O)(=O)c2ccc(F)cc2)Oc2c(NC(=O)c3cnccn3)cccc2C1=O the results were AF4-AF9 inh -8.0.
Screening C[n+]1c(-c2ccccc2)cc2c(=Cc3ccc([N+](=O)[O-])cc3)c3ccccc3n21 returned AF4-AF9 inh 61*.
Screening COCC(=O)Nc1ccc2c(c1)OC[C@@H](C)N(C(=O)c1ccccc1F)C[C@H](C)[C@@H](OC)CN(C)C2=O returned AF4-AF9 inh -0.6.
`O=C(N[C@H]1CC[C@H](CCn2cc(C3CC3)nn2)O[C@@H]1CO)c1cccnc1` gave AF4-AF9 inh 0.0.
For C[C@H]1CN([C@@H](C)CO)C(=O)c2cc(NC(=O)Nc3cccc4ccccc34)ccc2O[C@H]1CN(C)S(=O)(=O)c1ccc(Cl)cc1 the results were AF4-AF9 inh -1.1.
For CN1C(=O)c2cc(NC(=O)c3cnccn3)ccc2OC[C@H]2O[C@H](CC(=O)NC3CCC3)CC[C@@H]21 the results were AF4-AF9 inh -2.0.
COc1ccccc1-c1cnc2c(c1)C(=O)N([C@@H](C)CO)C[C@H](C)[C@@H](CN(C)Cc1ccccc1)O2 was read as AF4-AF9 inh 2.8.
N#Cc1cccc(-c2ccc(C3[C@@H]4CN(C(=O)Nc5ccc6c(c5)OCO6)C[C@H]3N4)cc2)c1 (stereo not given in full) was read as AF4-AF9 inh 13&19.
For C[C@@H]1CN([C@@H](C)CO)C(=O)c2cc(NC(=O)Nc3ccc(F)cc3)ccc2O[C@@H](C)CCCCO[C@@H]1CN(C)C(=O)C1CCCCC1 the results were AF4-AF9 inh 1.3.

For reference, part of the list above.
O=C(Cc1cccc(NC(=O)C2CCN(C(=O)c3ccccc3)CC2)c1)Nc1cccc(C(=O)N2CCCCC2)c1 was read as AF4-AF9 inh -0.1.
For C[C@H](CO)N1C[C@H](C)[C@@H](CN(C)S(=O)(=O)c2ccc(F)cc2)Oc2c(NC(=O)c3cnccn3)cccc2C1=O the results were AF4-AF9 inh -8.0.
Screening C[n+]1c(-c2ccccc2)cc2c(=Cc3ccc([N+](=O)[O-])cc3)c3ccccc3n21 returned AF4-AF9 inh 61*.
Screening COCC(=O)Nc1ccc2c(c1)OC[C@@H](C)N(C(=O)c1ccccc1F)C[C@H](C)[C@@H](OC)CN(C)C2=O returned AF4-AF9 inh -0.6.
`O=C(N[C@H]1CC[C@H](CCn2cc(C3CC3)nn2)O[C@@H]1CO)c1cccnc1` gave AF4-AF9 inh 0.0.
For C[C@H]1CN([C@@H](C)CO)C(=O)c2cc(NC(=O)Nc3cccc4ccccc34)ccc2O[C@H]1CN(C)S(=O)(=O)c1ccc(Cl)cc1 the results were AF4-AF9 inh -1.1.
For CN1C(=O)c2cc(NC(=O)c3cnccn3)ccc2OC[C@H]2O[C@H](CC(=O)NC3CCC3)CC[C@@H]21 the results were AF4-AF9 inh -2.0.
COc1ccccc1-c1cnc2c(c1)C(=O)N([C@@H](C)CO)C[C@H](C)[C@@H](CN(C)Cc1ccccc1)O2 was read as AF4-AF9 inh 2.8.
N#Cc1cccc(-c2ccc(C3[C@@H]4CN(C(=O)Nc5ccc6c(c5)OCO6)C[C@H]3N4)cc2)c1 (stereo not given in full) was read as AF4-AF9 inh 13&19.
For C[C@@H]1CN([C@@H](C)CO)C(=O)c2cc(NC(=O)Nc3ccc(F)cc3)ccc2O[C@@H](C)CCCCO[C@@H]1CN(C)C(=O)C1CCCCC1 the results were AF4-AF9 inh 1.3.

Following part:
CC(C)NC(=O)N(C)C[C@@H]1Oc2ccc(NS(=O)(=O)c3cn(C)cn3)cc2C(=O)N([C@H](C)CO)C[C@@H]1C was read as AF4-AF9 inh -3.5.
Screening COc1ccc(S(=O)(=O)Nc2ccc3c(c2)C(=O)N([C@@H](C)CO)C[C@@H](C)[C@H](CN(C)S(C)(=O)=O)O3)cc1 returned AF4-AF9 inh -11.
For C[C@H](CO)N1C[C@H](C)[C@H](CN(C)S(C)(=O)=O)Oc2ncc(-c3ccc(F)cc3)cc2C1=O the results were AF4-AF9 inh -1.5&-0.7.
`CO[C@@H]1CN(C)C(=O)c2ccc(NC(=O)Nc3ccccc3)cc2OC[C@H](C)N(C(C)=O)C[C@@H]1C` gave AF4-AF9 inh 4.8.
`COc1ccc2c3c(n(C)c2c1)[C@@H](CO)N(C(=O)C1CC1)CC31CCN(C(=O)Nc2cccc(F)c2)CC1` gave AF4-AF9 inh 8.0.
`CO[C@H]1CC[C@H]2CCOc3c(C#N)cccc3C(=O)N(C)C[C@H](c3ccccc3)CC(=O)N(C)C[C@H]1O2` gave AF4-AF9 inh -2.2.
Cc1cc(C(=O)OCC(=O)N2CCCCCC2)ccc1[N+](=O)[O-] was read as AF4-AF9 inh 1.4.
COc1ccc(NC(=O)N(C)C[C@@H]2OCCCC[C@@H](C)Oc3ccc(NS(=O)(=O)c4ccc(C)cc4)cc3C(=O)N([C@@H](C)CO)C[C@H]2C)cc1 was read as AF4-AF9 inh -1.3.
